PKD1 inh: PKD1 (human) kinase inhibition; hit rate 0.056% among 200,000; inhibition, %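 (about 10 µM by stock and volumes)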; PKD1 kinase fluorescence polarization assay;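 active = inhibition of 50% or more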;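 also: controls were vehicle for no effect and a reference inhibitor for full effect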
Target sequence (Q15139 whole entry, looked up): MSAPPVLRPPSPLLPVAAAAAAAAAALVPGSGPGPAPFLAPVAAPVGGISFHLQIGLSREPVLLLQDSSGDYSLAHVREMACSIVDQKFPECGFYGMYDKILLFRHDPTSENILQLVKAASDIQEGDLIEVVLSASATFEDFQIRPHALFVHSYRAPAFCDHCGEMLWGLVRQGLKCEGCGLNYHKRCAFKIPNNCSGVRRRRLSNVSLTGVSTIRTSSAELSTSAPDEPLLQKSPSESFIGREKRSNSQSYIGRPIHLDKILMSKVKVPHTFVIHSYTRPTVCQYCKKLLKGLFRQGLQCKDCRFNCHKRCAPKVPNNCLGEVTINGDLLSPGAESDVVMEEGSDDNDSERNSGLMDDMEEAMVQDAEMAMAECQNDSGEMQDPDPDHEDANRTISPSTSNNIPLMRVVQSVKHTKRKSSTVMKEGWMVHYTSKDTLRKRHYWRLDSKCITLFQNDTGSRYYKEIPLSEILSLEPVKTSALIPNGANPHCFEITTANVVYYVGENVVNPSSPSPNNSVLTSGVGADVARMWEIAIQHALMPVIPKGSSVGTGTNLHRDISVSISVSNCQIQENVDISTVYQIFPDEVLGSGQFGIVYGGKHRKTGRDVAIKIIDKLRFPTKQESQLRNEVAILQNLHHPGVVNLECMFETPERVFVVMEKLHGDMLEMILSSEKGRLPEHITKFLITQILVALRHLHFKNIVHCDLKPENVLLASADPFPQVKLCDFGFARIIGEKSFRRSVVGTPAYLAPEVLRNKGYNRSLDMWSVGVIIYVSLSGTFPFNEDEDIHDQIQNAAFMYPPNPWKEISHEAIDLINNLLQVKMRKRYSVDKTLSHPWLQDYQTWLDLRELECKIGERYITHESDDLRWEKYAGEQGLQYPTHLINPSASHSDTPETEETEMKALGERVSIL
RGS16-Gao HTS: RGS16-Galphao interaction regulator (human); bead-based flow cytometry RGS16-Galphao binding, fluorescence; actives lie on both sides; binding response (% of control), % at 10 µM; hit rate 0.38% among 220,000;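 active = below 25% or above 175%, edge rows of some plates excepted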;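 also: Galphao activated by GDP with aluminum fluoride before binding; 100% = wells without compound and 0% = beads without RGS; some results beyond the cut were filed as inactive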
INS promoter inh: TRM-6 insulin promoter activity inhibition | inhibition, % at 2 µM | AID 1273 | hit rate 0.9% among 130,000 | TRM-6 cells (human fetal islet line), insulin promoter-eGFP reporter, imaging; reporter expression induced with tamoxifen;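 active = inhibition above the mean plus 3 SD, with well images judged a real hit on visual review, cut at about 60% in these data, passing the limit was not always enough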
GALR2 agonist: agonists of human galanin receptor 2 (GALR2); GALR2-expressing cells, agonist activation read-out; activation, %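 (tested at 5 µM)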; hit rate 0.48% among 140,000; O43603;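 active = above mean plus 3 SD of all compounds, about 5% in these data, not always enough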;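 also: 0% = vehicle buffer wells and 100% = reference agonist at full effect; tested in CHO reporter cells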
HSV augment: increases HSV replication in cells | hit rate 0.005% among 220,000 | HSV replication augmentation in cells, fold increase | maximum fold increase | AID 1956;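 active = peak rise of 1.5-fold or more in the series; tested in PC3 cells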;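 also: first round at 10 µM; read as green reporter fluorescence; hits show the peak of a series up to 25 µM; 1 = signal of infected wells without compound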
INS promoter inh cell count: further read-out of INS promoter inh, marked with its call; normalized cell count, %; measured here: cell count, toxicity; reference of the scale not given here;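 cells exposed to compound for 48 h; stained nuclei by imaging scaled within each plate; lower means fewer cells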
HSV augment primary fold: second read-out of HSV augment, no call of its own (marks repeat the call); fold increase; compound at 10 µM; measured here: primary screen fold increase 10 uM; tested in PC3 cells;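 GFP signal in the first replicate; 1 = infected wells without compound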
* marks the source's active call; other numbers are inactive results. An unsorted share of the library; 1.3% or so of the library scored in one or more.

What do the screens show for `CC(C)OC(=O)CCNc1n[nH]c(=O)[nH]c1=O`?
PKD1 inh: 5.0; RGS16-Gao HTS: 100.2; INS promoter inh: inactive; GALR2 agonist: -1.7; HSV augment: inactive; INS promoter inh cell count: 43.7; HSV augment primary fold: 1.05

What do the screens show for `CCOC(=O)N1CCC(NC(=O)c2ccc(CNS(=O)(=O)c3ccc(F)cc3)cc2)CC1`?
PKD1 inh: 1.1; RGS16-Gao HTS: 105.5; INS promoter inh: -11.1; GALR2 agonist: -1.0; HSV augment: inactive; INS promoter inh cell count: 93.0; HSV augment primary fold: 1.03

Results for O=C(Cc1ccccc1)NCC1OCCc2ccccc21 (stereo not given) ?
PKD1 inh: -10.8; RGS16-Gao HTS: 103.2; HSV augment: inactive; HSV augment primary fold: 1.07

What do the screens show for `Cc1cc(C)c2cc(CN(Cc3nnnn3Cc3ccc(F)cc3)C3CCCC3)c(=O)[nH]c2c1`?
PKD1 inh: -2.6; RGS16-Gao HTS: 98.0; INS promoter inh: 37.1; GALR2 agonist: -1.3; HSV augment: inactive; INS promoter inh cell count: 105.6; HSV augment primary fold: 1.06

How did CN(C)S(=O)(=O)Oc1cc(Cl)ccc1C(=O)Nc1ccc(F)cc1F do in these assays?
PKD1 inh: -3.9; RGS16-Gao HTS: 101.5; INS promoter inh: 6.7; HSV augment: inactive; INS promoter inh cell count: 59.7; HSV augment primary fold: 0.91

How did CCCCOC(=O)CNc1n[nH]c(=S)[nH]c1=O do in these assays?
PKD1 inh: -5.1; RGS16-Gao HTS: 89.4; INS promoter inh: 0.0; GALR2 agonist: -0.8; HSV augment: inactive; INS promoter inh cell count: 102.9; HSV augment primary fold: 1.05

Results for CCNCCC(=O)N1c2ccccc2Sc2ccc(NC(=O)OCC)cc21 ?
PKD1 inh: -2.9; RGS16-Gao HTS: 93.1; INS promoter inh: -185.7; GALR2 agonist: -1.4; HSV augment: inactive; INS promoter inh cell count: 29.3; HSV augment primary fold: 1.07

How did CCn1cnc2scc(-c3ccccc3)c2c1=O do in these assays?
PKD1 inh: 6.0; RGS16-Gao HTS: 90.7; INS promoter inh: 58.6; GALR2 agonist: -2.1; HSV augment: inactive; INS promoter inh cell count: 144.7; HSV augment primary fold: 0.92

What do the screens show for `CN(CC(=O)NCCc1ccc(F)cc1)Cc1cccc(Cl)c1`?
PKD1 inh: 5.3; RGS16-Gao HTS: 100.9; HSV augment: inactive; HSV augment primary fold: 0.99

What do the screens show for `Cc1noc(C)c1S(=O)(=O)N(C)Cc1ccccc1`?
PKD1 inh: -8.2; RGS16-Gao HTS: 102.9; INS promoter inh: 33.3; HSV augment: inactive; INS promoter inh cell count: 114.8; HSV augment primary fold: 1.03

How did COc1ccc(CNC(=O)C2CCN(C(=O)N3CCOc4ccc(C)cc43)CC2)cc1 do in these assays?
PKD1 inh: -3.0; RGS16-Gao HTS: 104.7; INS promoter inh: -78.6; GALR2 agonist: -1.0; HSV augment: inactive; INS promoter inh cell count: 71.7; HSV augment primary fold: 0.96

How did CCc1ccc(OCCCC(=O)Nc2ccc(S(N)(=O)=O)cc2)cc1 do in these assays?
PKD1 inh: -4.0; RGS16-Gao HTS: 102.8; HSV augment: inactive; HSV augment primary fold: 0.84

Results for COc1ccccc1NC(=O)C1=C(C)NC(=O)NC1c1ccc(C)s1 (stereo not given) ?
PKD1 inh: 5.3; RGS16-Gao HTS: 99.6; HSV augment: inactive; HSV augment primary fold: 1.03

How did COc1ccc(/C(O)=C2/C(=O)C(=O)N(CC3CCCO3)C2c2cccc(O)c2)cc1 (stereo not given) do in these assays?
PKD1 inh: 0.9; RGS16-Gao HTS: 102.6; INS promoter inh: 20.8; GALR2 agonist: -3.4; INS promoter inh cell count: 73.5

Results for Cn1nc(C(=O)OCC(=O)Nc2ccc3ccccc3c2)c2ccccc2c1=O ?
PKD1 inh: -6.0; RGS16-Gao HTS: 102.5; INS promoter inh: 58.3; HSV augment: inactive; INS promoter inh cell count: 85.6; HSV augment primary fold: 0.92

How did COc1ccc(C(=O)N(c2ccc(C)cc2)C2C=CS(=O)(=O)C2)cc1OC (stereo not given) do in these assays?
PKD1 inh: -10.0; RGS16-Gao HTS: 109.0; INS promoter inh: 25.0; HSV augment: inactive; INS promoter inh cell count: 130.9; HSV augment primary fold: 0.96

How did CCC(C)(C)NC(=O)C(c1cccn1C)N(Cc1ccc(C)cc1)C(=O)Cn1nnc2ccccc21 (stereo not given) do in these assays?
PKD1 inh: 17.8; RGS16-Gao HTS: 99.1; INS promoter inh: 7.1; GALR2 agonist: -3.6; HSV augment: inactive; INS promoter inh cell count: 165.9; HSV augment primary fold: 0.997

How did COc1ccc(C2CC(c3c(Cl)cccc3Cl)n3nc(N)nc3N2)cc1 (stereo not given) do in these assays?
PKD1 inh: 1.8; RGS16-Gao HTS: 103.8; GALR2 agonist: -0.1; HSV augment: inactive; HSV augment primary fold: 1.02

What do the screens show for `Cc1cccc2sc(NC(=O)C3c4ccccc4Oc4ccccc43)nc12`?
PKD1 inh: -4.0; RGS16-Gao HTS: 103.5; INS promoter inh: 26.7; GALR2 agonist: -3.1; HSV augment: inactive; INS promoter inh cell count: 132.6; HSV augment primary fold: 0.91

How did COc1ccc(NC(=O)Cn2c(-c3ccc(OC)cc3)cn(-c3ccc(C)cc3)c2=O)cc1 do in these assays?
PKD1 inh: -9.8; RGS16-Gao HTS: 100.8; INS promoter inh: -29.2; GALR2 agonist: -1.1; HSV augment: inactive; INS promoter inh cell count: 155.0; HSV augment primary fold: 1.06

Results for NNC(=S)NCc1ccco1 ?
RGS16-Gao HTS: 97.3; HSV augment: inactive; HSV augment primary fold: 1.11

What do the screens show for `COc1ccc(NC(=O)COC(=O)Cc2c(F)cccc2Cl)cc1`?
PKD1 inh: 0.5; RGS16-Gao HTS: 110.7; INS promoter inh: -27.3; HSV augment: inactive; INS promoter inh cell count: 169.3; HSV augment primary fold: 1

What do the screens show for `COc1cccc(CC2(CO)CCCN(Cc3cn[nH]c3C3CCCCC3)C2)c1` (stereo not given)?
PKD1 inh: -3.5; RGS16-Gao HTS: 101.9; HSV augment: inactive; HSV augment primary fold: 0.92

Results for N#Cc1c(NC(=O)CSc2ncc(-c3ccccc3)n2CC2CCCO2)sc2c1CCCC2 (stereo not given) ?
PKD1 inh: 0.0; RGS16-Gao HTS: 141.0; GALR2 agonist: -3.0; HSV augment: inactive; HSV augment primary fold: 0.7

How did O=C(CN1N=C(c2ccc(Cl)cc2)CCC1=O)NCc1cccnc1 do in these assays?
PKD1 inh: 1.5; RGS16-Gao HTS: 108.5; INS promoter inh: -41.9; GALR2 agonist: -0.6; HSV augment: inactive; INS promoter inh cell count: 113.6; HSV augment primary fold: 0.9

How did CC1(C)CC(=O)C(C=Nc2cccc(/N=C/C3=C(O)CC(C)(C)CC3=O)n2)=C(O)C1 do in these assays?
PKD1 inh: -2.0; RGS16-Gao HTS: 128.2; INS promoter inh: -9.7; GALR2 agonist: -1.5; INS promoter inh cell count: 139.4

What do the screens show for `CC(=O)c1cn(CC(=O)Nc2cccc(C)c2C)c2ccccc12`?
PKD1 inh: -7.5; RGS16-Gao HTS: 108.0; INS promoter inh: 28.6; HSV augment: inactive; INS promoter inh cell count: 93.8; HSV augment primary fold: 0.87

How did O=C(CCN1C(=O)/C(=C/C=C/c2ccccc2)SC1=S)Nc1cccnc1 do in these assays?
PKD1 inh: -6.8; RGS16-Gao HTS: 101.8; INS promoter inh: 5.4; GALR2 agonist: 1.5; HSV augment: inactive; INS promoter inh cell count: 88.4; HSV augment primary fold: 0.7

Results for CN(C1=C(N2CCCCC2)C(=O)c2ccccc2C1=O)c1ccccc1 ?
PKD1 inh: -7.1; RGS16-Gao HTS: 98.5; INS promoter inh: 31.4; GALR2 agonist: -4.4; HSV augment: inactive; INS promoter inh cell count: 89.7; HSV augment primary fold: 0.77

How did COc1ccc(OC)c(N=c2oc3cc(O)ccc3cc2C(N)=O)c1 do in these assays?
PKD1 inh: -8.0; RGS16-Gao HTS: 104.6; INS promoter inh: -42.9; GALR2 agonist: 5.3*; HSV augment: inactive; INS promoter inh cell count: 161.6; HSV augment primary fold: 1.09

Three entries drawn at random from the list so far, as already listed:
What do the screens show for `CCOC(=O)N1CCC(NC(=O)c2ccc(CNS(=O)(=O)c3ccc(F)cc3)cc2)CC1`?
PKD1 inh: 1.1; RGS16-Gao HTS: 105.5; INS promoter inh: -11.1; GALR2 agonist: -1.0; HSV augment: inactive; INS promoter inh cell count: 93.0; HSV augment primary fold: 1.03

Results for Cn1nc(C(=O)OCC(=O)Nc2ccc3ccccc3c2)c2ccccc2c1=O ?
PKD1 inh: -6.0; RGS16-Gao HTS: 102.5; INS promoter inh: 58.3; HSV augment: inactive; INS promoter inh cell count: 85.6; HSV augment primary fold: 0.92

Results for N#Cc1c(NC(=O)CSc2ncc(-c3ccccc3)n2CC2CCCO2)sc2c1CCCC2 (stereo not given) ?
PKD1 inh: 0.0; RGS16-Gao HTS: 141.0; GALR2 agonist: -3.0; HSV augment: inactive; HSV augment primary fold: 0.7

(cont.)
How did CCOC(=O)Cc1csc(NC(=O)c2cc(C)cc(C)c2)n1 do in these assays?
PKD1 inh: 4.0; RGS16-Gao HTS: 97.5; HSV augment: inactive; HSV augment primary fold: 1.05

What do the screens show for `CCOC(=O)c1c(C2CC2)csc1NC(=O)COC(=O)CCS(=O)(=O)c1ccc(C)cc1`?
PKD1 inh: -6.4; RGS16-Gao HTS: 74.6; INS promoter inh: -26.7; GALR2 agonist: -0.9; HSV augment: inactive; INS promoter inh cell count: 94.8; HSV augment primary fold: 0.86

Results for Cc1cccc(-c2nsc(SCC(=O)Nc3nccs3)n2)c1 ?
PKD1 inh: -12.7; RGS16-Gao HTS: 101.0; INS promoter inh: -121.4; GALR2 agonist: 4.8; HSV augment: inactive; INS promoter inh cell count: 107.5; HSV augment primary fold: 1

How did CCCCNC(=S)Nc1ccc2cn[nH]c2c1 do in these assays?
PKD1 inh: -0.6; RGS16-Gao HTS: 107.8; GALR2 agonist: -0.7; HSV augment: inactive; HSV augment primary fold: 0.95

Results for NC(=O)Cc1ccc(C(=O)c2ccc(Cl)cc2Cl)s1 ?
PKD1 inh: -2.0; RGS16-Gao HTS: 111.6; INS promoter inh: 27.3; HSV augment: inactive; INS promoter inh cell count: 89.4; HSV augment primary fold: 1.03

Results for O=C(NC1CCCC1)C(c1cccs1)N(C(=O)c1ccno1)c1ccccc1 (stereo not given) ?
PKD1 inh: -10.0; RGS16-Gao HTS: 97.1; INS promoter inh: -35.0; GALR2 agonist: -0.1; HSV augment: inactive; INS promoter inh cell count: 90.9; HSV augment primary fold: 1.07

Results for CC(C)(C)OC(=O)C1C(=O)CC(C)(O)C(C(=O)OC(C)(C)C)C1c1cccnc1 (stereo not given) ?
PKD1 inh: -1.5; RGS16-Gao HTS: 99.9; INS promoter inh: -7.4; GALR2 agonist: -1.0; HSV augment: inactive; INS promoter inh cell count: 65.1; HSV augment primary fold: 0.94

Results for CC1(C)CC(=O)C(C=NCCCO)=C(O)C1 ?
PKD1 inh: 0.3; RGS16-Gao HTS: 99.4; INS promoter inh: -21.4; GALR2 agonist: -2.9; HSV augment: inactive; INS promoter inh cell count: 94.9; HSV augment primary fold: 1.07

How did O=C(NCc1ccc2c(c1)OCO2)C1CCN(S(=O)(=O)c2ccc(Br)s2)CC1 do in these assays?
PKD1 inh: -0.8; RGS16-Gao HTS: 100.6; INS promoter inh: -51.6; GALR2 agonist: -1.7; HSV augment: inactive; INS promoter inh cell count: 134.0; HSV augment primary fold: 1.08

Results for CC(CCc1ccccc1)C(=O)NO (stereo not given) ?
PKD1 inh: -2.3; RGS16-Gao HTS: 97.6; GALR2 agonist: -1.7; HSV augment: inactive; HSV augment primary fold: 0.86

Results for CCOC(=O)C1CC(C)=C(C)CC1C(=O)O (stereo not given) ?
RGS16-Gao HTS: 101.4; HSV augment: inactive; HSV augment primary fold: 0.9

Results for CCCNC(=S)Nc1ccc2nc(-c3ccccn3)c(-c3ccccn3)nc2c1 ?
PKD1 inh: -6.1; RGS16-Gao HTS: 102.4; INS promoter inh: -213.3; GALR2 agonist: -0.2; INS promoter inh cell count: 86.4

Results for CSC(=Nc1ccccc1)Nc1ccccc1 ?
RGS16-Gao HTS: 97.2; HSV augment: inactive; HSV augment primary fold: 1.24

How did Cc1ccc(N(C(C)C(=O)O)S(=O)(=O)c2cccnc2)cc1 (stereo not given) do in these assays?
PKD1 inh: 4.3; RGS16-Gao HTS: 102.7; HSV augment: inactive; HSV augment primary fold: 1.28
